# Screening results from PubChem.
# AF4-AF9 inh: MLL-AF4/AF9 protein interaction inhibition; P42568; AlphaScreen, biotin-AF4 peptide binding to FLAG-AF9; inhibition, % at 10 µM; 350,000 tested, 0.47% active; AID 651704;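 active = every replicate reaching a set inhibition limit, whatever the replicate mean, cut at about 25% in these data; inconclusive = mean inhibition reaches that limit but some replicates miss it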;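 also: 0% = plate neutral control median and 100% = total signal loss; the record names both 10 and 1 µM as test concentration; the first replicate is given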
# Target sequence (P42568 whole entry, looked up): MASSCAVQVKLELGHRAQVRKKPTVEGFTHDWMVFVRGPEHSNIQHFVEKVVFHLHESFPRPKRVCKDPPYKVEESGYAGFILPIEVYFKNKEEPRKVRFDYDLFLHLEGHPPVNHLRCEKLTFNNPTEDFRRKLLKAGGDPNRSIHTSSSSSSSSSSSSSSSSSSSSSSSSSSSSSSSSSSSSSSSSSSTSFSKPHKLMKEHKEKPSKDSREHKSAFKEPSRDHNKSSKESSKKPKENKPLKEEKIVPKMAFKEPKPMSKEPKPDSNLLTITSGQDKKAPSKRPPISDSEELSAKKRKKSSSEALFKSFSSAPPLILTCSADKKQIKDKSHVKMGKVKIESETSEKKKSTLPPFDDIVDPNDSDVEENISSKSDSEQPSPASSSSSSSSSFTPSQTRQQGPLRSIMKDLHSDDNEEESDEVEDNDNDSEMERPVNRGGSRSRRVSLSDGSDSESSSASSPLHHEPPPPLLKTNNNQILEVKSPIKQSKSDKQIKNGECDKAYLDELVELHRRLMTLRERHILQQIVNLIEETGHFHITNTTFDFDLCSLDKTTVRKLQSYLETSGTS
# HNF4A DNA FP: change in binding of human HNF4 alpha to DNA; P41235; HNF4a-FITC DNA binding, fluorescence polarization, 1 h; 360,000 tested, 0.3% active; activity change, % at 10 µM; in the data active = activity change above about 30%, passing the limit was not always enough;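 also: controls were the assay level and a saturating level of protein; the project sought stronger binding though the title names inhibitors; some compounds called inactive have numbers as strong as hits; positive values seem to mean higher polarization but the record does not say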
# Vif TR-FRET: HIV-1 Vif–A3G interaction blockers – biochemical, TR-FRET, GST-Vif 1-94, biotin-A3G peptide, dose response retest, primary screen (AID 1117319); 260,000 tested, 0.57% active; one-dose inhibition, %; IC50 in µM for titrated hits; TR-FRET GST-Vif / biotin-A3G peptide binding; higher % means a stronger effect; test concentration not given here; strong numbers were not always called active;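 active = above the screen mean plus three standard deviations and confirmed in dose response; inconclusive = results disagree or hit not tested in dose response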;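 also: Vif residues 1-94 fused to GST binding biotinylated APOBEC3G peptide 110-148; 0% = full assay without inhibitor and 100% = GST in place of GST-Vif; retest series ran down from 100 µM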
# FGF22 binding: shifts melting point of recombinant human FGF22; recombinant FGF22 thermal shift, SYPRO orange fluorescence; percent of sucrose octasulfate shift, DMSO zero; 340,000 tested, 1.5% active; Q9HCT0; calls only at 9.99 µM;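 active = melting point raised past a set limit in the mean and every replicate; inconclusive = no clear call; three in four hits are not shown here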
# Target sequence (Q9HCT0 whole entry, looked up): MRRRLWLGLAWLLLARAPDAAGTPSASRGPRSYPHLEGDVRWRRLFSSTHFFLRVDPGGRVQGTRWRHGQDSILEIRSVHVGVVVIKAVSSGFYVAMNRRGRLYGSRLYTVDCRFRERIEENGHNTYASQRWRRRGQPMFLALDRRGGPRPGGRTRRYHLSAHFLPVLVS
# RanGTP-Imp inh: disruptors of Ran-importin-beta complex formation – biochemical, FRET, CFP-Ran, YFP-importin-beta, homogeneous, primary screen | cell-free CFP-Ran/YFP-importin-beta FRET ratio | 300,000 tested, 1.1% active | inhibition, % (concentration not given with the values);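 active = most replicates above 15%; inconclusive = exactly half above 15%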;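 also: 0% = DMSO wells and 100% = Ran loaded with GDP instead of GTP; wells of about 40 µL received 100 nL stock; the first replicate is given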
# Ecoli growth: E. coli growth inhibition; Escherichia coli growth, OD600, 23 h; hits give low values; OD600 absorbance (no concentration beside the values); 330,000 tested, 0.21% active;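 active = OD600 absorbance below the run mean of sample wells minus 3.6 SD, in any replicate, cut at about 0.56 in these data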;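 also: stock transfer was 300 nL into about 60 µL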
# UCH37 inh: human UCH37 deubiquitinating enzyme inhibition. Q9Y5K5. purified proteasome/UCH37, Ub-AMC cleavage fluorescence. inhibition, % (concentration not given with the values). 330,000 tested, 0.33% active;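 active = mean of two replicates above 20%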;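 also: 0% = compound-free wells with enzyme and 100% = wells lacking proteasome; stock transfer was 100 nL into about 20 µL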
# Target sequence (Q9Y5K5 whole entry, looked up): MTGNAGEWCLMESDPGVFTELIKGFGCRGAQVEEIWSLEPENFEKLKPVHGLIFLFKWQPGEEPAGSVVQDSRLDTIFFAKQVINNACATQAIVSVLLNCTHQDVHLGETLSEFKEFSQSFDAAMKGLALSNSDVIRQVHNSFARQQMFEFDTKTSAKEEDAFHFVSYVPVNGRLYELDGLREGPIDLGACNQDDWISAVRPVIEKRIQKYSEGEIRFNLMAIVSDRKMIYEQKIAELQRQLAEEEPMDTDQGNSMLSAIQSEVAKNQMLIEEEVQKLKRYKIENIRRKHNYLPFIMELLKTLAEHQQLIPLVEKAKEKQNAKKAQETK
#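 Reagent: Ub-AMC substrate; assay system: Proteasome-associated human UCH37 deubiquitinase; controls: no-proteasome and no-compound wells; read-out: % inhibition of Ub-AMC cleavage fluorescence; timing: 30 min preincubation with enzyme, 25 min cleavage at room temperature; signal: AMC fluorescence from Ub-AMC cleavage, excitation 355 nm, emission 460 nm; buffer or medium: Tris-HCl pH 7.4 plus ovalbumin, ATP-MgCl2, DTT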
# * = called active by the depositor; i = inactive; ? = inconclusive; . = not tested or not shown; & = joins results of further samples.
SMILES	HNF4A DNA FP	RanGTP-Imp inh	Vif TR-FRET	UCH37 inh	Ecoli growth	FGF22 binding	AF4-AF9 inh
Cc1cc(C)c(C#N)c(SCC(=O)N(CCC#N)c2ccc3c(c2)OCCO3)n1	3.0	.	4.2%	5.7	0.684	i	7.4
COc1ccc(CC(=O)N2CCC(C)(C(=O)NS(=O)(=O)C3CC3)C2)cc1OC (stereo not given)	0.5	.	.	.	.	i	-0.3
COc1ccc(CCNC(=O)C2CCN(S(=O)(=O)N3CCC(C)CC3)CC2)cc1OC	-2.5	0.4	.	3.5	0.705	i	-3.4
CSc1ccccc1NC(=O)Cc1ccccc1	6.0	-2.9	3.6%	3.9	0.709	i	0.2
O=C(O)Cc1ccc(NC(=O)COc2ccc3ccccc3c2)cc1	-0.4	-1.5	.	1.2	0.657	i	3.1
Clc1nssc1=Nc1ccc(Br)cc1	-1.3	3.2	10.5%	3.7	0.604	i	-3.3
COc1ccc(CCNc2nnc(Sc3nnnn3-c3ccccc3)s2)cc1OC	-1.6	-4.4	-11.0%&-11.9%	0.8	0.696	.	.
O=C(CSCc1ccccc1Cl)NNC(=O)c1ccccc1	-3.8	1.7	3.2%	0.4	0.718	.	.
COc1ccc(Br)cc1/C=N/n1c(COc2ccccc2)n[nH]c1=S	-0.2	5.8	-11.3%	.	.	i	-2.5
CN1CCN(CC(=O)N(Cc2c(C#N)c3ccccc3n2C)c2ccccc2)CC1	0.5	-1.0	-0.5%	1.2	0.706	.	.
Cc1cc(C)c(S(=O)(=O)NCc2ccccn2)cc1C	-7.6	-2.0	.	2.3	0.639	i	-1.4
CCCCCOc1ccc(Br)cc1/C(C)=N/NC1=NCCN1	4.1	-3.2	-1.2%	.	.	.	.
C=CCc1cc(Cl)ccc1OCCOCCNCCOC	-0.2	2.7	3.1%	1.5	0.613	i	2.5
O=C(Cc1ccccc1F)Nc1ccc(S(=O)(=O)Nc2ncccn2)cc1	-1.8	-2.8	.	0.3	0.664	i	1.4
CCCCN1C(Nc2ccccc2)=NC[C@@H]1Cc1ccccc1	-1.9	.	.	2.1	.	i	4.0
CCC1CCC2(CC1)NNC(=S)NN2	0.3	0.4	3.2%	.	.	.	.
COc1cccc(NC(=O)C(c2ccccc2)N2CCNC(=O)C2)c1 (stereo not given)	-0.7	0.5	4.8%	1.2	0.722	.	.
CN(CC(=O)NCc1ccc2c(c1)OCO2)CC(=O)Nc1ccc(F)c(F)c1F	2.6	.	-2.5%	2.9	0.673	i	-9.7
COc1ccc(Cc2nnc(NC(=O)c3ccc(Cl)c([N+](=O)[O-])c3)s2)cc1	-3.2	3.3	-2.9%	5.9	0.722	.	.
O=C(NCC1CCCO1)c1cccc(F)c1 (stereo not given)	3.2	-1.9	5.0%	-0.6	0.709	.	.
Nn1c(SCC(=O)N2CCCc3ccccc32)nnc1-c1ccccc1	-0.1	4.0	-1.9%	4.0	0.755	.	.
O=C(N/C(=C\c1cccs1)C(=O)N1CCOCC1)c1cccs1	-1.4	3.3	4.5%	5.3	0.679	i	-0.2
O=C1CCN(Cc2ccccc2)CCN1CCOc1ccccc1	7.0	?	.	.	.	i	-1.1
CC(=O)C1=C(C)Nc2ncnn2C1c1cccc(Br)c1 (stereo not given)	-2.1	-1.7	-2.8%	4.3	0.674	i	-1.7
Cc1ccc2cn[nH]c2c1NC(N)=S	2.8	0.7	.	1.4	0.713	i	-3.9
Cc1ccc(CN(C(=O)Cn2nnc3ccccc32)C(C(=O)NCc2ccco2)c2ccc(C)o2)cc1 (stereo not given)	-1.0	-3.4	5.1%	-3.0	0.765	.	.
COc1cccc(N(CC(=O)NCCSc2ccc(Cl)cc2)S(C)(=O)=O)c1	-1.0	3.7	-3.9%	0.6	0.635	.	.
Cc1ccc(S(=O)(=O)NC(=O)Nc2c(C)cccc2C)cc1	-1.4	9.0	-2.1%	1.0	0.7	i	-7.2
COc1ccc(C(=O)Nc2ccccc2C(=O)N2CCN(c3ccccc3)CC2)cc1	0.5	5.3	-0.8%	2.9	0.622	i	4.2
COc1ccc(-c2cc(C(=O)N3CCOCC3)c3cc(C)ccc3n2)cc1	-4.4	2.4	-2.7%	i	0.731	.	1.6
COCCN(C(=O)CSc1ncn[nH]1)c1c(N)n(Cc2ccccc2)c(=O)[nH]c1=O	-1.2	?	-5.5%	3.1	0.707	i	9.5
N#Cc1cccc(NC(=O)COC(=O)CCc2nc3ccccc3c(=O)[nH]2)c1	4.1	1.4	?	0.8	0.669	i	-10.7
O=C1c2ccc(Oc3ccc4c(c3)C(=O)N(CCCCO)C4=O)cc2C(=O)N1CCCCO	1.3	2.0	1.5%&-3.3%	-0.6	0.733	.	.
Cc1cc(C)n2[nH]c(=O)c(N=Nc3cccc(Cl)c3)c2n1	-0.1	3.0	9.6%	8.9	0.65	.	.
CC(=O)C1=C(C)NC(SCc2ccc(C#N)cc2)=C(C#N)C1c1ccco1 (stereo not given)	-8.1	.	.	4.5	0.614	i	3.6
Cc1noc(C)c1C(=O)N1CCCC(N2CCN(c3cccc(C(F)(F)F)c3)CC2)C1 (stereo not given)	3.0	-0.4	.	3.1	0.685	i	0.5
Cc1ccc(/C=C2\Oc3c(ccc(O)c3CN3CCN(CCO)CC3)C2=O)cc1	1.1	35.4*	-6.6%	-110.6	0.632	i	-0.7
Cc1c(Cl)cccc1Nc1n[nH]c(=S)s1	-0.5	.	2.6%	.	.	i	-7.9
CC(N=C1NS(=O)(=O)c2ccccc21)C(=O)NCc1ccc(F)cc1 (stereo not given)	-2.5	.	-6.5%	3.2	0.668	i	-0.5
CCOC(=O)[C@]12CCCC=C1N(Cc1ccc(Cl)cc1Cl)C(=O)[C@H](CC(=O)NCc1ccccc1)C2	0.8	.	.	.	.	i	0.7
CNc1cc(F)nc(F)n1	-3.3	26.9*	-3.8%	-0.5	0.701	.	.
O=C(CSc1ccccn1)Nc1ccc2c(c1)CCC2	-0.3	0.2	-8.7%	5.5	0.685	i	-1.1
CNC(=O)/C(C#N)=C1\SC(Cc2ccc(F)cc2)C(=O)N1c1ccccc1C (stereo not given)	1.2	1.8	.	3.3	0.65	i	2.1
CCc1nnc(NC(=O)c2n[nH]c(=O)c3ccccc23)s1	1.8	-3.1	2.9%	3.8	0.653	i	-1.3
O=C(CCc1c[nH]c2ccccc12)N/N=C/c1ccc2c(c1)OCO2	0.2	-0.9	-6.9%	.	.	i	2.3
Cc1ccc(NC(=S)Nc2cc(C(=O)O)ccc2N2CC3CC(C2)c2cccc(=O)n2C3)cc1C (stereo not given)	-1.5	0.7	-0.2%	0.3	0.594	i	1.8
C=CCN(C(=O)c1csnn1)C(C(=O)NCc1ccc(F)cc1)c1cccs1 (stereo not given)	0.9	6.9	.	5.4	0.656	i	-1.4
Cc1cc(=O)n2c(C)n[nH]c2n1	2.9	.	1.7%	-3.0	0.759	.	.
Cc1cccc(C)c1NC(=O)CN(C)C(=O)Cc1cccc(C(F)(F)F)c1	5.2	-2.6	.	0.1	0.682	.	0.5
COc1ccc(C2N(S(=O)(=O)c3ccc(C)cc3)CCN2S(=O)(=O)c2ccc(C)cc2)cc1	3.8	?	2.0%	4.9	0.738	.	.

# Next part:
SMILES	HNF4A DNA FP	RanGTP-Imp inh	Vif TR-FRET	UCH37 inh	Ecoli growth	FGF22 binding	AF4-AF9 inh
O=C(NC(CC(=O)N1CCN(c2ccccc2O)CC1)c1ccccc1)c1ccccc1Cl (stereo not given)	0.7	.	1.8%	1.9	0.599	i	-1.2
CC(C)C[C@H]1CN([C@@H](Cc2ccccc2)CN2CCC[C@@H]2CN2C(=O)C(=O)NC[C@@H]2Cc2ccc(O)cc2)C(=O)C(=O)N1CC1CCCCCC1	2.5	.	.	.	.	i	0.5
O=C(COc1ccc([N+](=O)[O-])cc1)NNC(=O)c1cccnc1	-1.2	-13.6	.	0.8	0.606	i	-4.1
O=C(/C=C/c1cccs1)NCc1cccnc1	-1.6	4.6	-2.9%	1.8	.	.	.
CC1=C(C(=O)OC(C)(C)C)C(c2ccc3ccccc3c2)NC(=O)N1C (stereo not given)	-0.6	1.8	-0.1%	-1.3	0.696	i	0.8
COc1ccc(C(=O)Nc2c(N)nc(SCC(=O)Nc3ccc(NC(C)=O)cc3)[nH]c2=O)cc1	-3.8	.	4.1%	1.6	0.711	i	-1.4
CCCCNC(=O)C1CCN(c2nc(C)cc(C)n2)CC1	-3.4	0.4	-19.6%	-11.4	0.681	i	-1.1
O=C(NC1CCCCC1)N(Cc1cc2cc3c(cc2[nH]c1=O)OCCO3)C1CCCCC1	-3.3	2.9	4.3%	-75.7	0.695	.	.
Cc1ccc(S(=O)(=O)N(C)c2ccc(OCC(=O)OCc3nnc(-c4ccccc4)o3)cc2)cc1	1.1	.	.	1.6	0.691	i	-1.3
CCOc1ccccc1CNC(=O)C1CCCN(c2ncnc3c2nc2n3CCCCC2)C1 (stereo not given)	5.9	0.1	.	3.9	0.666	.	.
CC(=O)NS(=O)(=O)c1ccc(N/C(N)=N/c2nc(C)cc(C)n2)cc1	-0.2	1.0	-2.2%	0.2	0.658	i	-1.9
Cc1c(C(=O)NCCN(C)C)n(C)c(=O)c2ccccc12	0.2	.	.	.	.	i	0.3
CN(C)c1ccc(/C(=N\O)c2ccccc2)cc1	9.8	-4.3	5.8%	.	.	.	.
CCOCCCNC(=O)C(NC(=O)c1ccccc1O)c1ccc(Cl)cc1 (stereo not given)	2.0	0.6	-13.2%	-72.2	0.658	.	.
N#Cc1c(-c2ccccc2)nc2n(c1=O)CCS2	-2.8	-1.6	3.4%	5.3	0.671	.	.
COc1ccc(S(=O)(=O)NCC2CCC(C(=O)NCc3cccnc3)CC2)cc1 (stereo not given)	7.3	2.1	1.8%	-1.2	0.73	.	-1.1
COc1cc(C(=O)NCC(=O)N/N=C/c2cccc(OC(=O)c3ccco3)c2)cc(OC)c1OC	0.2	0.3	-13.8%	.	.	i	0.9
COc1ccc(CCn2nc(C)c([N+](=O)[O-])c2C)cc1	-0.4	-1.1	-7.9%	1.1	0.742	i	-0.1
CCc1nc2nc(C)c(NS(=O)(=O)c3ccc4c(c3)CCCC4)c(=O)n2[nH]1	-0.8	-0.1	.	1.8	0.694	i	0.5
N#C/C(=N\Nc1ccccc1F)c1nc(-c2ccccc2)cs1	0.6	0.9	12.7%	.	.	i	8.4
Cc1ccc(C)c(N2C(=O)CC(Cc3ccc(Br)cc3)C2=O)c1 (stereo not given)	3.7	3.6	.	3.6	0.638	i	-1.9
CC(Sc1ccc(Cl)cc1)C(=O)NNC(=O)c1ccncc1 (stereo not given)	1.8	.	-2.8%	7.1	0.727	i	-7.2
COC(=O)C1CCN(C(=O)COC(=O)CCc2nc3ccccc3c(=O)[nH]2)CC1	-2.7	-0.1	-5.7%	-3.2	0.668	i	-1.0
COc1ccc(NC(=S)N(CCCN2CCCC2)Cc2cccn2Cc2ccc(Cl)cc2)cc1Cl	4.2	1.2	9.9%	1.0	0.651	i	33.0*
O=C1CCC(C(=O)Nc2ccccc2)N1 (stereo not given)	-2.4	-4.8	-10.0%	4.9	0.69	.	.
CCOC(=O)c1ccc(NC(=S)NC2CC(C)(C)NC(C)(C)C2)cc1	4.1	.	5.2%	5.1	0.759	.	.

# Only part of the results is shown (hit frequency here may not be typical).
